VDR inh: blocks the human vitamin D receptor; Potency, µM, inactives show max response, negative = inhibition, actives largely listed as inhibitors; 400,000 compounds, 0.93% hits; P11473; AID 504847; VDR-SRC2-3 peptide fluorescence polarization, 2 h; active = well fitted inhibition curve with a large enough effect; inconclusive = small, poorly fitted or top-dose-only effect, or another doubt; inactive = no such curve, though single readings can be large or run the other way; note: series mostly up to about 120 µM
Target sequence (P11473 whole entry, looked up): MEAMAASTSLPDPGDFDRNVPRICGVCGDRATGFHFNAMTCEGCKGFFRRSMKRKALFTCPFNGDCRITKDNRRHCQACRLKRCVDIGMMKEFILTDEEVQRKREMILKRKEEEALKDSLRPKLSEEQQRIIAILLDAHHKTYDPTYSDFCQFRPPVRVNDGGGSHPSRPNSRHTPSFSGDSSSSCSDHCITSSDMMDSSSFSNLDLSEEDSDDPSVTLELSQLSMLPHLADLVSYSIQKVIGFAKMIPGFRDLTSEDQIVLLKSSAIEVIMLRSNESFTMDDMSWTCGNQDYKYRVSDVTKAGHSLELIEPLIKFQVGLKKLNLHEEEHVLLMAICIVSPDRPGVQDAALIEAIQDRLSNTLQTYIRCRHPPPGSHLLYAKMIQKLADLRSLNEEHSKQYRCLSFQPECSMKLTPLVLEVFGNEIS
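Signal is fluorescence polarization, reporting how far test compounds block the interaction of VDR with the SRC2-3 coregulator peptide after a 2 h room-temperature incubation.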
The depositor's hits bear a star; ? = inconclusive; & = joins results of further samples. % is set by controls: 0 for no effect and ±100 for the full control effect; potency is the fitted concentration of half-maximal effect. An excerpt; rates above refer to the full screens.

SMILES	VDR inh
c1ccc2sc(N3CCN(Cc4ccc5c(c4)OCO5)CC3)nc2c1	15%&-4%
COC(/C=C/Nc1ccc(C)cc1)=C(C#N)C#N	-2%
CCn1ncc(/C=N\NC(=O)c2cc(-c3ccc(C)cc3C)nc3ccccc23)c1C	-7%
CCN(C(=O)CSc1nnnn1-c1ccccc1)c1c(N)n(Cc2ccccc2)c(=O)[nH]c1=O	17%
COc1ccc(-c2c(-c3ccc(OCC(=O)NN)cc3O)n[nH]c2C)cc1OC	-8%
O=C1CN(C(=O)COC(=O)CNC(=O)c2ccc(Br)o2)c2ccccc2N1	-10%
O=S(=O)(Nc1nccs1)c1ccc(Nc2nnc(-c3ccccc3)c3ccccc23)cc1	-23%
COc1ccccc1CNC(=O)C(C)Sc1ccsc1[N+](=O)[O-] (centres undefined)	8%
COc1cccc(CNC(=O)C2CCN(S(=O)(=O)N3CCCC3)CC2)c1	1%
O=C1SC(Cc2ccccc2)C(=O)N1c1ccccc1 (centres undefined)	-5%
CN(C)S(=O)(=O)c1ccc(C(=O)NNc2nc(-c3ccccc3)c3cc(Br)ccc3n2)cc1	-7%
O=C1C[C@H]2[C@H](CO)[C@@H](OC(=O)c3ccc(-c4ccccc4)cc3)C[C@H]2O1	3%
Cc1cc(NC(=O)CSc2ncc(C(=O)O)n2-c2ccc(F)cc2)no1	11%
C=CCn1c(SCC(=O)Nc2c(C)n(C)n(-c3ccccc3)c2=O)nc2scc(-c3ccccc3)c2c1=O	2%
Cc1nn(S(=O)(=O)c2ccc(Cl)cc2)c(C)c1S(=O)(=O)N1CCCCCC1	10%
CCc1ccc(-c2nc(CN3CCC(C(=O)NCc4ccc(F)cc4)CC3)c(C)o2)cc1	0%
O=C(NNC(=O)c1ccc(Cl)cc1Cl)c1ccc2ccccc2c1	1%
CC(C)Cn1c(N)c(C(=O)NCC2CCCO2)c2nc3ccccc3nc21 (centres undefined)	-10%
COc1ccc(C2CC(c3ccc(OC)cc3OC(C)=O)=NN2C(=O)c2ccccc2)cc1 (centres undefined)	4%
Cc1ccsc1C(=O)OCC(=O)Nc1c(Cl)cccc1C(F)(F)F	?
CC(C)C[C@H](NC(=O)c1nc[nH]c1C(=O)NCCCCCNC(=O)OC(C)(C)C)C(=O)OCc1ccccc1	2%
CCOC(=O)c1cnc2c(OC)cccc2c1N1CCN(c2ccccc2F)CC1	-4%
COc1ccc(C(=O)c2sc(Nc3ccccc3F)nc2N)cc1	-13%
CCCCC/C=C\C[C@@H]1O[C@H]1C(O)/C=C\C/C=C\CCCC(=O)O (some centres undefined)	-1%
COc1cc2nc(SCC(=O)Nc3cccc(C)c3)n3nc(CCn4c(C)nc5ccccc54)nc3c2cc1OC	-26%
COc1ccc(CCNC(=O)c2cc3c(=O)n4ccccc4nc3n(CC3CCCO3)c2=N)cc1 (centres undefined)	-6%
C=CCN1C(=O)c2ccc(C(=O)OCC(=O)Nc3ccc(S(N)(=O)=O)cc3)cc2C1=O	8%
COc1ccc(CN2CCN(C(=O)c3cc(-c4cccnc4)nc4ccc(Cl)cc34)CC2)c(OC)c1OC	-9%
O/N=C(/Cc1ccccn1)c1ccccc1	5%
CC(C)Sc1cc(N2CCCC2)nc(-c2ccccc2Cl)n1	-22%

SMILES	VDR inh
Cc1cccc(NC(=O)c2oc3ccccc3c2NC(=O)c2cc(=O)c3ccccc3o2)c1	1%
CC(=O)c1cccc(NC(=O)C(=O)Nc2cccc3ccccc23)c1	-10%
COc1ccccc1CNc1nc2ccc(C)cc2n2nnnc12	5%
Cc1ccc(-c2nsc(SCC(=O)NCC3CCCO3)n2)cc1 (centres undefined)	4%
N#C/C(=C\Nc1ccccc1O)c1nc2ccccc2o1	-25%
CCOC(=O)c1ccc(S(=O)(=O)N2CC(=O)Nc3ccccc32)cc1	-21%
CCOC(=O)/C(C#N)=C/c1cn(CCC(=O)O)nc1-c1ccc(OC)cc1	?
COc1ccc(CCNCC(O)COc2ccc(OC)cc2C(C)(C)C)cc1 (centres undefined)	-15%
COc1ccc(-c2n[nH]c(C)c2-c2cscn2)c(O)c1	1%
COc1ccc(NC(=O)CSc2nnc(-c3ccncc3)n2-c2ccccc2)cc1	13%
Fc1ccc(-n2[nH]nnc2=S)cc1N1CCCC1	-36%
CCn1nc(C(=O)Nc2ccccc2N2CCCC2)c2ccccc2c1=O	-3%
CCNC(=O)C12CCC(C)(C(=O)O1)C2(C)C (centres undefined)	-5%
Fc1cc(F)c2nc(N3CCCC3)sc2c1	8%
CCCNC(=S)N1CCC(n2cnc3ccccc32)CC1	2%
Cc1cc(NO)c(C(C)C)cc1N=O	-1%
COc1ccc(CN2[C@@H](CC(=O)O)c3cc(C(F)(F)F)ccc3S2(=O)=O)cc1	-16%
CS(=O)(=O)c1ccc(C(=O)CN2C(=O)NC3(CCCc4ccccc43)C2=O)cc1 (centres undefined)	12%
CCCN(CC1CC1)C(=S)NC(=O)C1CC1	-17%
Cc1sc(NC(=S)NC(=O)CCc2ccccc2)c(C(N)=O)c1C	-1%
O=C(CCC(=O)Nc1cc(C(F)(F)F)ccc1Cl)N/N=C\c1cc([N+](=O)[O-])ccc1O	2%
Cn1c(N)c(C(=O)COC(=O)c2cccs2)c(=O)n(C)c1=O	-9%
CS(=O)(=O)N(CC(=O)NCCc1ccccc1)c1cc(C(F)(F)F)ccc1Cl	-14%
O=C(NCc1ccccc1)C1CCCN1C(=O)Nc1ccccc1[N+](=O)[O-] (centres undefined)	10%
Cc1cc(CN(C)Cc2cn(C)nc2-c2ccc(Oc3ccccc3)cc2)on1	6%
O=C(NC1CCC(O)CC1)c1ccc(NS(=O)(=O)c2cccc([N+](=O)[O-])c2)cc1 (centres undefined)	-16%
CC1N(C(=O)N2CCOCC2)CCN1S(=O)(=O)c1cccc(C(F)(F)F)c1 (centres undefined)	-11%
COc1ccc(Cn2nnnc2C(CC(C)C)N2CCN(c3ccccc3)CC2)cc1 (centres undefined)	10%
Clc1ccc(Cn2ccc(-c3ccc4c(c3)OCO4)n2)cc1Cl	2%
Cc1ccc(-n2ncc3c2CC(C)(C)CC3NC(=O)CCCN2CCCCC2=O)cc1 (centres undefined)	-17%

SMILES | VDR inh
CCN(CC(=O)Nc1cc(S(=O)(=O)N2CCOCC2)ccc1Cl)Cc1ccccc1 | 14%
Cc1ccc(SC[C@H](CC(C)C)N2CCN(CCc3ccccc3)CCC2=O)cc1 | 2%
CCOC(=O)c1ccc(NC(=S)Nc2ccc(Cl)cn2)cc1 | 12%
Cc1nc(NC(=O)COC(=O)C(NC(=O)c2ccco2)C(C)C)c(Cl)cc1Cl (centres undefined) | -2%
CC[C@]1(C(=O)OC)[C@H]2C(=O)N(Cc3ccccc3)C(=O)[C@H]2[C@H]2CN(C)C(=NC)N21 | 25%
COc1cc(NC(=O)Cn2c(=O)nc(-c3ccccc3F)c3cc(Cl)ccc32)cc(OC)c1 | 3%
c1ccc(SCc2cc(-c3ccccc3)no2)cc1 | 0%
CC(C)CN(C(=O)CN1C(=O)NC2(CCc3ccccc32)C1=O)C1CCS(=O)(=O)C1 (centres undefined) | 6%
O=C(Nc1cccc(S(=O)(=O)N2CCOCC2)c1)c1cccc(S(=O)(=O)N2CCCC2)c1 | -9%
CCN(C(=O)C1CCN(c2nc(-c3ccc(OC)cc3)no2)CC1)c1ccc(OC)cc1 | 5%
Cc1ccc(C2/C(=C(/O)c3ccccc3)C(=O)C(=O)N2CCN2CCOCC2)o1 (centres undefined) | 7%
O=C(CCCN1C(=O)c2ccccc2C1=O)Nc1ccc(Br)cn1 | 16%
CCOC(=O)c1ccc(NC(=O)COc2ccc(-n3cnnn3)cc2)cc1 | -1%
COc1ccc(N(CC(=O)NCc2ccccn2)S(=O)(=O)c2ccccc2[N+](=O)[O-])c(OC)c1 | -16%
O=C1N(c2ccccc2C(F)(F)F)O[C@]1(c1ccccc1)C1CCCC1 | -13%
O=C(COc1cccc(Cl)c1)N/N=C\c1cc2ccccc2nc1Cl | 11%
CCN1CCN(C(=O)c2cc3cc4ccc(OC)cc4nc3s2)CC1 | -2%
CCCCn1c(=O)c2oc3ccccc3c2n(CC(=O)Nc2ccccc2OC)c1=O | 5%
O=C(O)c1ccccc1NS(=O)(=O)c1cccc(N=Nc2c(O)[nH]c(=S)[nH]c2=O)c1 | 4%
Cc1cc(Cl)ccc1OC(C)C(=O)NCCCCc1ccccc1 (centres undefined) | 5%

Reformatted: results already given.
COc1ccccc1CNc1nc2ccc(C)cc2n2nnnc12
  VDR inh = 5%

Cc1ccc(-c2nsc(SCC(=O)NCC3CCCO3)n2)cc1 (centres undefined)
  VDR inh = 4%

Next part
SMILES | VDR inh
CS(=O)(=O)N1CCC(C(=O)NCc2ccc(F)cc2Cl)CC1 | -3%
CCCCCn1c(CCC(=O)Oc2ccccc2OC)nc2c1c(=O)[nH]c(=O)n2CCCC | -4%
CCOc1ccccc1CN1C(=O)NC(C)(c2ccccc2)C1=O (centres undefined) | 2%
O=C(Nc1ccc(Cl)cc1)C1C2CCC3C(CCC21)C3(Cl)Cl (centres undefined) | 12%
Cc1cc(C)cc(NC(=O)COC(=O)COc2cccc3c2OC(C)(C)C3)c1 | -6%
Cc1cc(C)cc(NC(=O)C(=O)NCC(c2cccnc2)N2CCOCC2)c1 (centres undefined) | 15%
c1ccc(-c2nnc(NC3=NCCC3)o2)cc1 | -7%
COc1ccc(N2CC(O)=C(c3nc(-c4ccc(Br)cc4)cs3)C2=N)cc1 | -4%
COc1ccc(-c2[nH]ncc2CN(C)Cc2nonc2C)c(OC)c1 | -15%
Cn1c(SCc2ccc(Br)cc2)nnc1-c1ccccn1 | 15%
COc1ccccc1N1CCN(S(=O)(=O)c2ccc3c(c2)CC(C)N3C(C)=O)CC1 (centres undefined) | 0%
COc1cc(C(=O)Nc2ccc(S(=O)(=O)N3CCOCC3)cc2)c([N+](=O)[O-])cc1OC | 9%
c1ccc(-c2nnsc2Sc2ccccn2)cc1 | -20%
CSc1ccc(S(=O)(=O)N2CCN(Cc3ccc4c(c3)OCO4)CC2)cc1 | -11%
CC(C)Oc1ccc(OCCNC2CCCC2)cc1 | -7%
CCOc1ccc(CNC(=O)c2ccc(-c3nc(CS(=O)(=O)c4ccccc4)c(C)o3)cc2)cc1 | 17%
Cc1cn2c(=O)cc(COC(=O)COc3ccc(F)cc3)nc2s1 | -11%
O=C(NCC(=O)N1CCN(c2ncccn2)CC1)c1ccccc1F | 10%
Cc1nn(-c2ccccn2)c2nc(-c3cccs3)cc(C(=O)NCc3ccco3)c12 | -14%
Cc1cc(Cl)ccc1OCC(=O)NNC(=O)C1CSC2(C)CCC(=O)N12 (centres undefined) | 14%

SMILES | VDR inh
CC(=O)N1CCC2(CCCN(c3ccccc3)C2)CC1 | ?
COc1ccc(Cc2nnc(N/N=C/c3ccc(O)cc3O)[nH]c2=O)cc1OC | -17%
CC(=O)N1CCN(C(=O)c2ccc(Cl)c(S(=O)(=O)N3CCCC3)c2)CC1 | 5%
Cc1c(-n2cc(C(=O)c3cc(Cl)ccc3O)cc(C#N)c2=O)c(=O)n(-c2ccccc2)n1C | -13%
S=C(NC1CC1)NC1CCCc2ccccc21 (centres undefined) | -4%
C=CCn1cccc(C(=O)Nc2ccc(N(C)C)cc2)c1=O | 8%
Cc1ccc(CN2CCN(C3CCOCC3)CC2CCO)cc1 (centres undefined) | 14%
CCOc1ccc(S(=O)(=O)Nc2cc(OC)ccc2OC)cc1 | -14%
Cc1ccc(CCN2CCN=C2N(C)C)cc1 | -17%
CC1CC(Nc2cccc(O)c2)=CC(=O)O1 (centres undefined) | 28%
Cc1cc(-c2ccccc2)n(-c2ccccc2)n1 | 9%
COc1ccc(N(CC(=O)N2CCN(c3ccccc3)CC2)S(=O)(=O)c2c(C)nn(C)c2C)cc1 | -9%
N=c1c(S(=O)(=O)c2ccccc2)cc2c(=O)n3ccccc3nc2n1C1CCCC1 | 13%
CC(=O)Nc1ccc(NC(=O)CSc2nnc(NC(=O)c3cccc(F)c3)s2)cc1 | 6%
COc1cccc(/C=N/NC(=O)C(=O)N2CCCCCC2)c1OC | -4%
CCN(CC(=O)NCc1ccc(Cl)cc1)C(=O)CCOc1ccc(C)cc1 | -15%
O=C/C(=C\Nc1ccc(Cl)cn1)c1nc2cc(Cl)ccc2o1 | -1%
CCOc1ccc(S(=O)(=O)N2CCCCCC2)cc1 | 2%
COC(=O)C1=C(C)NC(=O)/C1=C\c1cccs1 | -23%

7 compounds already listed, sorted by number of heavy atoms, smallest number first.
SMILES | VDR inh
Cc1ccc(CCN2CCN=C2N(C)C)cc1 | -17%
Cc1cc(-c2ccccc2)n(-c2ccccc2)n1 | 9%
CC(=O)N1CCC2(CCCN(c3ccccc3)C2)CC1 | ?
COc1cccc(/C=N/NC(=O)C(=O)N2CCCCCC2)c1OC | -4%
CC(=O)N1CCN(C(=O)c2ccc(Cl)c(S(=O)(=O)N3CCCC3)c2)CC1 | 5%
COc1ccc(Cc2nnc(N/N=C/c3ccc(O)cc3O)[nH]c2=O)cc1OC | -17%
CC(=O)Nc1ccc(NC(=O)CSc2nnc(NC(=O)c3cccc(F)c3)s2)cc1 | 6%

2 records picked at random from those above, as already listed:
SMILES | VDR inh
CCN(CC(=O)NCc1ccc(Cl)cc1)C(=O)CCOc1ccc(C)cc1 | -15%
CC(=O)N1CCC2(CCCN(c3ccccc3)C2)CC1 | ?
